V. cholerae QS = Vibrio cholerae quorum sensing activators, luminescence (AID 686977). 9,400 tested, under 10 active. one-dose luminescence at 50 µM unless noted; EC50 in µM for titrated hits. V. cholerae quorum sensing reporter, luminescence, 6 h; higher luminescence means a stronger effect; most inactives read 0;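 active = light above mean plus 3 SD and confirmed in a dose series; inconclusive = above that limit without a clear retest; inactive = below it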;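 note: raw light counts without normalisation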
The depositor's hits bear a star; ? = inconclusive; [ ] = another dose, or the depositor's remark. Some of the compounds tested. The share of hits here may be higher or lower than overall.

1) COc1ccccc1OCC(O)COC(N)=O (stereo not given)
  V. cholerae QS: 0[10 µg/mL]

2) CCC1C(=O)OCC1Cc1cncn1C (stereo not given)
  V. cholerae QS: 40[10 µg/mL]

3) N=C(N=C(N)N)N1CCOCC1
  V. cholerae QS: 0[10 µg/mL]

4) CN(C)CCCN1c2ccccc2Sc2ccccc21
  V. cholerae QS: 0[10 µg/mL]

5) CN1CCC(=C2c3ccccc3CCc3sccc32)CC1
  V. cholerae QS: 40[10 µg/mL]

6) COc1ccc(CN(CCN(C)C)c2ccccn2)cc1
  V. cholerae QS: 40[10 µg/mL]

7) COc1c(O)cc2c(c1O)C1OC(CO)C(O)C(O)C1OC2=O (stereo not given)
  V. cholerae QS: 0[10 µg/mL]

8) O=C(Cn1ccnc1[N+](=O)[O-])NCCO
  V. cholerae QS: 0[10 µg/mL]

9) Cc1onc(-c2ccccc2Cl)c1C(=O)N[C@@H]1C(=O)N2[C@@H]1SC(C)(C)[C@@H]2C(=O)O
  V. cholerae QS: 0[10 µg/mL]

10) c1ccc2c(CC3=NCCN3)cccc2c1
  V. cholerae QS: 0[10 µg/mL]

11) CC(=O)[C@H]1CC[C@H]2[C@@H]3C[C@H](C)C4=CC(=O)CC[C@]4(C)[C@H]3[C@@H](O)C[C@]12C
  V. cholerae QS: 0[10 µg/mL]

12) C[C@]12CC[C@H]3[C@@H](CCC4=CC(=O)CC[C@@]43C)[C@@H]1CC[C@@H]2C(=O)CO
  V. cholerae QS: 0[10 µg/mL]

13) Nc1cc(-c2ccncc2)c[nH]c1=O
  V. cholerae QS: ?

14) O=C(O)[C@@H]1[C@H]2C[C@H]3c4[nH]c5ccccc5c4CCN3C[C@@H]2CC[C@@H]1O
  V. cholerae QS: ?

15) CC(C)Cc1ccc([C@H](C)C(=O)O)cc1
  V. cholerae QS: 0[10 µg/mL]

16) O=C1NCC2(CCN(CCc3ccccc3)CC2)O1
  V. cholerae QS: 0[10 µg/mL]

17) COc1cc2nc(N3CCN(C(=O)C4COc5ccccc5O4)CC3)nc(N)c2cc1OC (stereo not given)
  V. cholerae QS: 0[10 µg/mL]

18) COc1nc(C)nc(Cl)c1NC1=NCCN1
  V. cholerae QS: 0[10 µg/mL]

19) NS(=O)(=O)c1cc2c(cc1C(F)(F)F)NC(Cc1ccccc1)NS2(=O)=O (stereo not given)
  V. cholerae QS: 0[10 µg/mL]

20) CCCOc1ccccc1-c1nc2n[nH]nc2c(=O)[nH]1
  V. cholerae QS: 0[10 µg/mL]

21) O=C(O)COC(=O)Cc1ccccc1Nc1c(Cl)cccc1Cl
  V. cholerae QS: 0[10 µg/mL]

22) Cc1nnc(NS(=O)(=O)c2ccc(N)cc2)s1
  V. cholerae QS: 0[10 µg/mL]

Two of the compounds above, with tabs.
No.	structure	V. cholerae QS
14	O=C(O)[C@@H]1[C@H]2C[C@H]3c4[nH]c5ccccc5c4CCN3C[C@@H]2CC[C@@H]1O	?
15	CC(C)Cc1ccc([C@H](C)C(=O)O)cc1	0[10 µg/mL]

Quoted from above, nos. 20 to 22
20) CCCOc1ccccc1-c1nc2n[nH]nc2c(=O)[nH]1
  V. cholerae QS: 0[10 µg/mL]

21) O=C(O)COC(=O)Cc1ccccc1Nc1c(Cl)cccc1Cl
  V. cholerae QS: 0[10 µg/mL]

22) Cc1nnc(NS(=O)(=O)c2ccc(N)cc2)s1
  V. cholerae QS: 0[10 µg/mL]

Individual results from the entries so far:
In V. cholerae QS, no. 15 shows 0[10 µg/mL]
In V. cholerae QS, no. 9 shows 0[10 µg/mL]
In V. cholerae QS, no. 12 shows 0[10 µg/mL]
In V. cholerae QS, no. 4 shows 0[10 µg/mL]
In V. cholerae QS, no. 16 shows 0[10 µg/mL]

Compound activity as filed in PubChem BioAssay.
